GLA inh pH 4.5: qHTS Assay for Inhibitors of Human alpha-Galactosidase at pH 4.5; Alpha-galactosidase A (Homo sapiens), P06280; purified enzyme, 4-MU-alpha-Gal fluorescence, pH 4.5; activity change, negative = inhibition, % at 105 µM; 230,000 tested, under 10 active; inconclusive = small, poorly fitted or top-dose-only inhibition, or a rising curve; inactive = flat fitted curve, though single readings scatter; no compound was filed as active;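 further: 0% = full activity with enzyme and -100% = basal without enzyme; dose as in the result columns while the protocol names 77 µM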
Rango dissoc inh: qHTS Assay for Inhibitors of RanGTP induced Rango (Ran-regulated importin-beta cargo) - Importin beta complex dissociation; AID 540253, 2011; Potency, µM (series often up to 46.1 µM), for inactives: at the highest dose activity change, negative = inhibition; Biochemical FRET Rango-importin beta, RanGTP-induced dissociation; hit rate 0.071% among 340,000; Snurportin-1 (Homo sapiens) + GTP-binding nuclear protein Ran (Homo sapiens) + Importin …; active means falling FRET ratio curve, often poorly fitted, with flat reads before Ran was added; inconclusive means other falling curves, or compound fluorescence or quenching; inactive means flat or rising ratio curve;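 further: potency means the concentration at half of the fitted maximal effect; % of control where 0% means no effect; nearly all actives have a fitted effect of over 45% in size; -100% = wells without RanGTP and RCC1; the record marks most hits as doubtful in a second field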
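Two FRET readings bracket the reaction: one 5 min after compound meets Rango–importin beta, another 45 min after RanGTP-RCC1 (0.6 uM Ran, 0.2 uM RCC1, 2 mM GTP) is added. Only the second defines inhibition.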
miR-21 FLuc: qHTS Assay for Modulators of miRNAs and/orActivators of miR-21; HeLa miR-21 FLuc reporter, luciferase, 48 h; Potency, µM (doses to about 38.3 µM), for the others: top-dose reporter change, positive = more light; 340,000 tested, under 10 active; AID 2288, 2010; active = well fitted rising curve with a large enough effect; inconclusive = small, poorly fitted or top-dose-only effect; inactive = no such curve, though single readings can be large or run the other way;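 further: % of control where 0% means no effect; miR-21 action dims this reporter so a rising signal means less miR-21 action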
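Compounds were titrated across several concentrations (up to approximately 40 uM) and incubated 48 hours with HeLa miR-21-FLuc reporter cells (miR-21 target sequence downstream of FLuc, endogenous miR-21). Readout was firefly luciferase luminescence after lytic detection reagent.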
Rango-impB inh: qHTS Assay for Inhibitors of Rango (Ran-regulated importin-beta cargo) - Importin beta complex formation | Rango CFP/YFP FRET sensor + importin beta, 45 min | hit rate 0.031% among 340,000 | Potency, µM (doses to about 92.2 µM), for inactives: at the highest dose inhibition of complex formation | AID 540263, 2011 | Importin subunit beta-1 (Homo sapiens), Q14974; active = rising FRET ratio curve, often small or poorly fitted; inconclusive = mostly compound fluorescence or quenching in the first reads; inactive = flat curves in all reads;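 further: potency means the concentration at half of the fitted maximal effect; 0% = DMSO wells and 100% = buffer wells lacking importin beta; nearly all actives have a fitted effect of over 15% in size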
Target sequence (Q14974 whole entry, looked up): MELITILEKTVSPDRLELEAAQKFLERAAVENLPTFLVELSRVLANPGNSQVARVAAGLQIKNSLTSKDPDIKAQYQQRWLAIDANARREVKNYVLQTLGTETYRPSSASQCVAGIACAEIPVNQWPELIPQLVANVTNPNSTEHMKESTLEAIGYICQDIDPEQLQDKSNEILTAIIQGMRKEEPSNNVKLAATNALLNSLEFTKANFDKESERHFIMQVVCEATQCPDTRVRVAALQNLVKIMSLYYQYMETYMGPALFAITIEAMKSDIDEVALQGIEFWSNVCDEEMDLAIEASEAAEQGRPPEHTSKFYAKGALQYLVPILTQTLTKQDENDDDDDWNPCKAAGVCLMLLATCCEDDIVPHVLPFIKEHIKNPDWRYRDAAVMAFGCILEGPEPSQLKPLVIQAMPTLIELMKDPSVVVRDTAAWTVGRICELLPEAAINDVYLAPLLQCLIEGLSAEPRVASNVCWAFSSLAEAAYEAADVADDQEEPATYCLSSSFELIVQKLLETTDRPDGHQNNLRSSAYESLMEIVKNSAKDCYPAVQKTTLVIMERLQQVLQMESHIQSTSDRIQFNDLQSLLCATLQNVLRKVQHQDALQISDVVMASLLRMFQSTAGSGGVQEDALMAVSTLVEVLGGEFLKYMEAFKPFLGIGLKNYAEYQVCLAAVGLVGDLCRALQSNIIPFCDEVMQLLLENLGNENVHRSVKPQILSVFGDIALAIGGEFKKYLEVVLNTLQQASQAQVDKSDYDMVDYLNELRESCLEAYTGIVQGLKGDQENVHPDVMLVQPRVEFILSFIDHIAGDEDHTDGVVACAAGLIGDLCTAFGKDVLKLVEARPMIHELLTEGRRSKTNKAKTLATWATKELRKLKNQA
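FRET biosensor (snurportin 1 IBB flanked by EYFP and cerulean), 50 nM, with compound 5 min, then 0.125 microM importin beta in PBS, 1 mM DTT, 0.02% Tween-20, 0.1% BSA. CFP/YFP ratio read after 45 min at room temperature; pre-read flags interference.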
* hit, by the source's call; ? = inconclusive; / = no result given; & = joins results of further samples. This is a subset (hit frequency here may not be typical).

GLA inh pH 4.5	Rango-impB inh	Rango dissoc inh	miR-21 FLuc	SMILES
0	0.0%	13%	/	CCN(CC)CCOC(=O)C(c1ccccc1)C1CCCCC1 (stereo unspecified)
/	0.6%	-2%	/	Cc1cccn2c(=O)nc(SCC(=O)c3ccc(Cl)cc3)nc12
/	?	?	0%	CC(C)(C)c1ccc(/C=C(\C#N)C(=O)Nc2ccccn2)cc1
-14	-2.1%	9%	0%	COC(=O)c1ccccc1NC(=O)CNC(=O)c1ccco1
-3	4.4%	25%	-23%	CC1CCc2nn(CC(=O)NCc3ccco3)cc2C1 (stereo unspecified)
2	?	4%	0%	CCOc1ccccc1NC(=O)COC(=O)c1cc[n+]([O-])cc1
/	0.7%	-3%	0%	CCc1ccc(C(=O)Nc2cccc(-c3nn[nH]n3)c2)s1
/	-3.2%	37%	0%	C=CCn1c(CNC(=O)c2ccco2)nnc1SCC(=O)c1ccc(F)cc1
/	0.0%	-1%	0%	COc1ccc(/C=C2\SC(=S)N(CCC(=O)NC3CCCC3)C2=O)cc1OC
4	0.9%	15%	-14%	COc1ccc(C)cc1NC(=O)N1CCCc2ccccc21
/	2.9%	21%	8%&4%	Cc1ccc(N2CCN(C(=O)c3nn(C)c4c3CS(=O)(=O)c3ccccc3-4)CC2C)cc1 (stereo unspecified)
0	-0.4%	1%	-11%	COc1ccccc1-n1c(SCC(=O)Nc2ccccc2F)nc2[nH]ncc2c1=O
-2	-2.9%	-6%	-3%	O=C(/C=C/c1ccco1)N1CCN(S(=O)(=O)c2cccs2)CC1
-2	-3.4%	14%	-15%	CCOC(=O)c1c(NC(=S)NC)sc2c1CCCC2
/	1.4%	-8%	1%	COc1ccc(/C=N\NC(=O)c2ccc(-c3ccccc3)cc2)c(OC)c1OC
/	-2.3%	2%	/	CN1C(C)(C)CC(NC(=O)CCC(=O)NC2CC(C)(C)N(C)C(C)(C)C2)CC1(C)C

Full records from above. Screens in order: GLA inh pH 4.5 | Rango-impB inh | Rango dissoc inh | miR-21 FLuc
Profile of CN1C(C)(C)CC(NC(=O)CCC(=O)NC2CC(C)(C)N(C)C(C)(C)C2)CC1(C)C → / | -2.3% | 2% | /
Profile of COc1ccc(C)cc1NC(=O)N1CCCc2ccccc21 → 4 | 0.9% | 15% | -14%

(more compounds)
GLA inh pH 4.5	Rango-impB inh	Rango dissoc inh	miR-21 FLuc	SMILES
-8	?	-19%	24%	Cc1ccc(C(=O)N/C(=C/c2ccc(-c3cc(C(F)(F)F)ccc3Cl)o2)C(=O)NCc2cccnc2)cc1
/	0.7%	1%	-2%	C/C(=N\NC(=O)CNC(=O)c1ccc(F)cc1)c1ccco1
/	2.0%	16%	8%	CSc1ccc(CCNC(=O)c2cccc3c2C(=O)N(C2CCCCC2)C3)cc1
10	?	-22%	-33%	Cc1cc2nc(-c3ccc(SCC(=O)Nc4ccc(S(=O)(=O)N5CCCC5)cc4)nc3)[nH]c2cc1C
0	-2.2%	1%	12%	COc1ccc(O)c(/C=N/Nc2nc(Nc3ccccc3)nc(-n3nc(C)cc3C)n2)c1
/	2.1%	0%	-6%	O=C(CNC(=O)c1cccc(Cl)c1)Nc1ccc(F)c(F)c1F
4	1.4%	2%	-1%	O=C(CNC(=O)c1cccs1)OCC(=O)c1ccc(Br)cc1
/	-0.9%	-18%	-8%	Cc1ccc(OCc2cc(C(=O)NC(C)Cc3cnccn3)no2)cc1C (stereo unspecified)
/	6.7%	-11%	6%	CC(C)(C)c1ccc(-n2ncc3c2CCCC3NC(=O)CCCn2cncn2)cc1 (stereo unspecified)
-7	1.3%	?	23%	CCN(CC)S(=O)(=O)c1cccc(NC(=O)c2ccc(SC)cc2OC)c1
1	-11%	8%	-5%	COc1ccc(N(C(=O)c2ccccc2OC(C)=O)C(C)C2CC2)cc1 (stereo unspecified)
-3	2.9%	-3%	3%	COc1ccc(-n2ccc(=O)c3c2CCCC3=O)cc1
-10	0.1%	-1%	-2%	CCOc1ccc(C(=O)N[C@H](C(=O)Nc2ccc(OC)c(S(=O)(=O)N3CCOCC3)c2)C(C)C)cc1
-6	-4.9%	-17%	-15%	COc1ccccc1OCCNC(=O)C(=O)c1c[nH]c2ccccc12
-2	-0.3%	8%	-3%	COC(=O)CSc1nc2ccc(NC(C)=O)cc2s1
/	-0.2%	8%	-10%	CCCc1nc(SCc2ccc(OCC)cc2)n[nH]1
3	-0.5%	18%	11%&6%	COC(=O)c1ccc(NC(=O)CCS(=O)(=O)c2ccc(Br)s2)cc1
-1	0.3%	11%	-13%	COc1ccc(/C=C/C(=O)O)cc1S(=O)(=O)N1CCCc2ccccc21
-1	-3.0%	18%	-1%	CC(=O)N1CCN(C(=O)c2cc(C)nc3ccccc23)CC1
-9	5.8%	0%	-9%	CCC(=O)Nc1ccc(N2CCN(C(=O)c3ccccc3C)CC2)cc1
-6	-3.1%	?	-1%	COc1cc(N2CCCC2)ccc1C=O
9	3.6%	32%	6%	COc1ccc(OCC(=O)NNC(=O)Cc2coc3cc(OC)ccc23)cc1
/	7.0%	-6%	/	CC(=O)Nc1ccc(S(=O)(=O)N(C)CC(=O)OCC(=O)c2ccc[nH]2)cc1
-4	1.4%	0%	-5%	CC(CCc1ccccc1)NC(=O)c1ccc2nc(N3CCOCC3)sc2c1 (stereo unspecified)
21	2.6%	1%	-17%	COc1ccc(/C=C/c2nnc(NC(=O)CSc3ccc(C)cc3)s2)cc1
-11	-3.4%	-15%	-1%	COc1ccc(/C=N/S(=O)(=O)c2ccccc2)cc1OC
0	-4.8%	-24%	-6%	CN(C)C(=O)c1noc2cc([N+](=O)[O-])ccc12
7	0.4%	5%	-17%	Cc1cccc(NC(=O)c2ccc(S(=O)(=O)N(C)C)cc2)c1
/	1.5%	-5%	0%	CC1(C)CC(=O)N(c2cc(Cl)cc(Cl)c2)C(=O)C1
/	3.7%	1%	/	COc1cc(/C=C/C(=O)c2ccc([N+](=O)[O-])o2)ccc1O
/	-4.2%	6%	2%&9%	CCOC(=O)C1CCCN(C(=O)Cn2ncc3c([nH]c4ccccc43)c2=O)C1 (stereo unspecified)
/	4.7%	0%	/	CC1CCCCC1NC(=O)COC(=O)c1ccc2c(c1)OCCO2 (stereo unspecified)

An excerpt of these results, with two lines to a compound:
Fields: GLA inh pH 4.5	Rango-impB inh	Rango dissoc inh	miR-21 FLuc
- COc1cc(/C=C/C(=O)c2ccc([N+](=O)[O-])o2)ccc1O
 : /	3.7%	1%	/
- CCOC(=O)C1CCCN(C(=O)Cn2ncc3c([nH]c4ccccc43)c2=O)C1 (stereo unspecified)
 : /	-4.2%	6%	2%&9%
- Cc1cccc(NC(=O)c2ccc(S(=O)(=O)N(C)C)cc2)c1
 : 7	0.4%	5%	-17%
- COc1ccc(/C=C/c2nnc(NC(=O)CSc3ccc(C)cc3)s2)cc1
 : 21	2.6%	1%	-17%
- CN(C)C(=O)c1noc2cc([N+](=O)[O-])ccc12
 : 0	-4.8%	-24%	-6%

Continued:
GLA inh pH 4.5	Rango-impB inh	Rango dissoc inh	miR-21 FLuc	SMILES
/	-1.1%	-10%	0%	Cc1ccc([C@@H]2[C@@H]3C(=O)N(C)C(=O)[C@@H]3[C@]3(C)C(=O)N(CCO)CC(=O)N23)o1
/	-1.9%	-2%	/	O=C(O)CCCC(=O)OCc1c(-c2ccccc2)ncc2ccccc12
3	2.5%	0%	-32%	O=C(CSc1nn(-c2ccccc2)c(=S)s1)Nc1ncccn1
1	-5.0%	6%	1%	O=C(CCN1C(=O)C2C3C=CC(C3)C2C1=O)N1CCCCC1 (stereo unspecified)
/	2.4%	3%	11%	Cc1cc(C)cc(N2CC(C(=O)Nc3cc(C)on3)CC2=O)c1 (stereo unspecified)
4	0.3%	-6%	16%	Cc1onc(-c2ccccc2Cl)c1C(=O)Nc1cccc(-c2cn3cccnc3n2)c1
0	?	-10%	-15%	Cc1sc2nc(CSc3nnnn3-c3ccc(Cl)cc3)[nH]c(=O)c2c1C
-5	-0.6%	-10%	-55%	O=C(COc1ccccc1C(=O)c1cnn(-c2ccccc2)c1)Nc1ccc2ccccc2c1
-3	-3.4%	13%	-2%	Cc1ccc(C2NC(=S)NC3=C2C(=O)CCC3)cc1 (stereo unspecified)
/	-1.5%	-6%	/	COc1ccc(NC(=O)COc2cccc3c2OC(C)(C)C3)cc1OC
-3	-3.1%	1%	-1%	CC(C)CCNC(=O)C(c1ccco1)N(CCCO)C(=O)Cn1nnc(-c2ccc(F)cc2)n1 (stereo unspecified)
/	-3.0%	-2%	3%	CCc1ccccc1N1CC(C(=O)Nc2nccs2)CC1=O (stereo unspecified)
-4	0.0%	-1%	-15%	CCCC(=O)Nc1ccc(NC(=O)c2ccccc2Cl)nc1
-10	3.6%	12%	-8%	COc1ccc(C2/C(=C(\O)c3ccc4c(c3)OCCO4)C(=O)C(=O)N2CCCN(C)C)c(OC)c1 (stereo unspecified)
-4	-3.8%	4%	1%	O=C(CCCCO)CCCCCCCC[C@H]1N[C@H](CO)[C@H](O)[C@@H]1O[C@@H]1O[C@H](CO)[C@@H](O)[C@H](O)[C@H]1O
/	-3.3%	-11%	/	Cc1ccc(NC(=O)CN(C)C(=O)COC(=O)c2nc3nccc(C)n3n2)cc1
-9	4.7%	2%	-4%	COC(=O)c1ccc(CSc2nnc(SCc3ccc(C(=O)OC)o3)s2)o1
-6	0.8%	0%	-5%	CC(=O)Nc1nonc1NC(=O)CSc1ncn[nH]1
/	-3.0%	-24%	/	CC(NC(=O)Cn1cc([N+](=O)[O-])cn1)c1ccc(C(C)(C)C)cc1 (stereo unspecified)
8	-2.0%	-1%	-4%	Cc1ccc(S(=O)(=O)N2CCC(C(=O)NCCc3ccccc3)CC2)cc1
/	-0.4%	23%	8%	COc1cccc(NS(=O)(=O)c2cc3c(cc2C)N(C)CCO3)c1
/	-1.2%	-7%	/	CCOC(=O)C1=C(C(=O)OCC)c2ccc(OC)c(OC)c2C1
3	1.3%	-3%	-26%	COc1ccc(-c2cc(C(=O)NC(Cc3cc4ccccc4[nH]3)C(=O)O)c(C)o2)cc1OC (stereo unspecified)
/	-2.7%	14%	/	CNC(=O)NC(=O)CSc1ccc(S(=O)(=O)N2CCOCC2)cn1
2	-0.4%	-3%	-3%	Cc1cccc(C(C)C)c1NC(=O)COC(=O)Cc1ccsc1
/	2.9%	12%	/	CC(Oc1ccccc1Cl)C(=O)Nc1ccc(S(=O)(=O)Nc2nccs2)cc1 (stereo unspecified)
/	0.6%	-2%	/	CCOC(=O)c1c(NC(=O)C(C)OC(=O)C2=COCCO2)sc2c1CCCC2 (stereo unspecified)
6	-0.4%	-7%	-8%	CC(NC(=O)COC(=O)c1ccccc1Nc1ccccc1)c1ccccc1 (stereo unspecified)
/	-1.5%	9%	-2%	O=C(Nc1cccc(-c2nc3ccccc3[nH]2)c1)c1ccccn1
-8	3.3%	7%	1%	CCC(C)NCCCCOc1ccc(C)cc1[N+](=O)[O-] (stereo unspecified)
-1	5.2%	7%	0%	Cc1ccc(S(=O)(=O)NCc2cn3ccsc3n2)c(C)c1
-2	4.0%	0%	-3%	N#CC1(c2ccccc2)CCCN1C(=O)c1ccccc1Cl (stereo unspecified)
/	5.5%	6%	-9%	Cc1cccc(OCCCC(=O)N2CCCCCC2)c1C
3	0.3%	3%	-25%	CC(On1c(-c2ccccc2)nc2ccc(Cl)cc21)C(=O)O (stereo unspecified)
/	-1.3%	-11%	/	CC[C@H](C)[C@H](NC(=O)c1ccc(Cl)cc1)C(=O)OCC(=O)c1c(N)n(C)c(=O)n(C)c1=O
-3	?	-27%	28%	CC(=O)n1cc([C@@H]2C=C(C(=O)NCc3ccccc3)O[C@H](OCc3ccc(CO)cc3)C2)c2ccccc21

High-throughput results from PubChem BioAssay.
